Bioassay records (PubChem)
LANA-H2B inh = blockers of LANA interaction with H2A/H2B – biochemical, FP readout, HTS, primary screen. Protein LANA1 (Human herpesvirus 8 type P (isolate GK18)), Q9QR71. inhibition, % (no concentration beside the values). cell-free LANA-H2A/H2B peptide, fluorescence polarization. 320,000 compounds, 0.6% hits; in the data active means inhibition mostly above about 10%, no sharp cut-off; inactive means mostly below about 6.7%;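 further: stock transfer was 7.5 nL into about 10 µL; 0% = median of vehicle wells and 100% = median of positive control wells; one replicate is shown; the record names a cut of 25% in any replicate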
RanGTP-Imp inh = inhibitors of RanGTP-importin-beta interaction, primary screen, biochemical, FRET, CFP-Ran, YFP-importin-beta, homogeneous; AID 2216, 2009; cell-free CFP-Ran/YFP-importin-beta FRET ratio; 300,000 compounds, 1.1% hits; Ran GTPase (GTP-bound) - importin-beta complex; inhibition, % (concentration not given with the values);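 active means most replicates above 15%; inconclusive means exactly half above 15%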;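 further: 0% = DMSO wells and 100% = Ran loaded with GDP instead of GTP; wells of about 40 µL received 100 nL stock; the first replicate is given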
T cruzi inh = inhibitors of intracellular T. cruzi growth, primary screen, luminescence, NIH3T3 host cells | T. cruzi beta-gal in NIH3T3, 90 h | inhibition, % (no concentration beside the values) | 300,000 compounds, 1.4% hits | AID 1885, 2009;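 active means mean inhibition across valid replicates above about 55%, limit read from the data; inconclusive means mean below that limit but half or more replicates reach it; inactive means mean below it, under half of replicates reach it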;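 further: signal also drops with host cell toxicity which is not excluded here; 0% = plate median of DMSO wells and 100% = zero luminescence signal; higher percent means less beta-gal luminescence so fewer parasites; stock transfer was 50 nL into about 50 µL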
Beta cell apopt = inhibitors of cytokine-induced beta cell apoptosis, primary screen, luminescence; INS-1E cytokine-induced death, ATP luminescence, 48 h; percent of positive-control rescue, neutral wells zero; AID 435005, 2010; protection from apoptosis, % (test concentration not listed); 300,000 compounds, 0.8% hits;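 active means all replicates at 75% or more, or half of them and the mean; inconclusive means half reach 75% but not the mean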;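 further: 0% = cytokine-treated negative control wells and 100% = positive control rescue; higher means more ATP so stronger rescue from cytokine killing; wells of about 40 µL received 100 nL stock; the first replicate is given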
A1 inh = caspase 3/7 activation in MEF A1-2A-BIM cells, primary screen, A1 inhibitor project, cell-based, luminescence, HTS | Caspase-Glo 3/7 luminescence, 3 h; percent of clofoctol response, vehicle zero | caspase activation, % (concentration not given with the values) | 330,000 compounds, 0.066% hits | AID 2462, 2010;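 active means over half of replicate activation scores above 10%, or exactly half above 10 with the replicate mean above 10; inconclusive means replicate mean below 10 yet half the replicates above 10; inactive means over half of replicates below 10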;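 further: wells of about 30 µL received 50 nL stock; many hits fall short of the cut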
B2AR ag = beta2AR agonists driving receptor internalization, primary screen, cell-based, FAP fluorogen, flow cytometry; Beta-2 adrenergic receptor (Homo sapiens), P07550; Am2.2-beta2AR cells; reference of the scale not given here; response, % (no concentration beside the values); 340,000 compounds, 0.43% hits;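 active means response above a set limit, near 3 SD of response in nonfluorescent compounds, cut at about 42% in these data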;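 further: stock transfer was 100 nL into about 11 µL; a reference agonist was the positive control; negative values mostly stem from fluorescent compounds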
Target sequence (P07550 whole entry, looked up): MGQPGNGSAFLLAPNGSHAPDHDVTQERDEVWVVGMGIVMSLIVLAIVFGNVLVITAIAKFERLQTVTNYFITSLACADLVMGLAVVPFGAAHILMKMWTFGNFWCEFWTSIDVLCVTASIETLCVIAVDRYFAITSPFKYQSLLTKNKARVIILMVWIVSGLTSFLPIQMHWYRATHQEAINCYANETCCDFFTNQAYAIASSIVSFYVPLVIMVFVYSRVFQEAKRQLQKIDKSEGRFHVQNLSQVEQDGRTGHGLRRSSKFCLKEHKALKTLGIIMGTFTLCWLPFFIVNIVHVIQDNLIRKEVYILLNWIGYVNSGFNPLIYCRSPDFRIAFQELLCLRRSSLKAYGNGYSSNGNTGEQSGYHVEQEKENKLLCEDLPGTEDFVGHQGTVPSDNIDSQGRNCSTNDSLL
Calb FLC = C. albicans growth inhibition with fluconazole, primary screen, CaCi-2 strain, Alamar Blue fluorescence; AID 1979, 2009; 300,000 compounds, 0.57% hits; C. albicans CaCi-2 (fluconazole-resistant clinical isolate) + fluconazole, 48 h; growth inhibition, % (test concentration not listed);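 active means most replicates above 75%; inconclusive means exactly half above 75%; inactive means most below 75%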;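 further: all wells also contain fluconazole at 8 µg/ml as a sub-toxic cotreatment; 0% = median of DMSO wells and 100% = median of geldanamycin control wells; wells of about 8 µL received 7.5 nL stock; the first replicate is given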
The depositor's hits bear a star. These rows are one share of the data. The share of hits here may be higher or lower than overall.

`CCOC(=O)C1=c2/c(=C/c3ccccc3OC)c(N)c(C#N)n2C(=O)C(c2ccccc2OC)S1` (stereo not given) gave RanGTP-Imp inh inconclusive, T cruzi inh -20.6 and Calb FLC -13.9.
c1ccc(Cn2c(-c3cccs3)nc3nc4ccccc4nc32)cc1 was read as RanGTP-Imp inh inconclusive, T cruzi inh 12.0 and Calb FLC 12.0.
CC(/C(O)=C(\C#N)c1nc2ccccc2n1C)N1C(=O)c2ccccc2C1=O (stereo not given) was read as RanGTP-Imp inh 0.0, T cruzi inh 14.9 and Calb FLC -8.2.
Cc1cc(/C=C2\SC(=S)N(Cc3ccco3)C2=O)c(C)n1-c1cccnc1 was read as RanGTP-Imp inh 21.0*, T cruzi inh 35.5 and Calb FLC -14.8.
For Cc1cccc(NS(=O)(=O)c2cc(NC(=O)CC(=O)c3ccc([N+](=O)[O-])cc3)ccc2C)c1 the results were RanGTP-Imp inh 1.8, T cruzi inh 44.5 and Calb FLC 23.5.
CCOC(=O)C1=C(C)NC2=C(C(=O)CCC2)C1c1ccsc1 (stereo not given) was read as RanGTP-Imp inh 0.8, T cruzi inh 4.2 and Calb FLC -13.5.
`COC(=O)C/C=C/[C@@H](C)[C@@H](/C=N/OC[C@H]1O[C@H](c2ccccc2)C=C[C@@H]1Oc1ccc(OC)cc1)NS(=O)(=O)c1ccc(C)cc1` gave RanGTP-Imp inh 0.2, T cruzi inh 0.9 and Calb FLC 5.3.
Screening Cc1ccc(C(=O)n2c(=S)nc3ccccn32)cc1 returned RanGTP-Imp inh 0.8, T cruzi inh -3.4 and Calb FLC -2.3.
Cc1ccc(/C=C2/SC(=S)N(CCC(=O)N3CCN(c4ccccc4)CC3)C2=O)cc1 was read as RanGTP-Imp inh inconclusive, T cruzi inh -18.3 and Calb FLC -0.2.
For CC(C)Nc1nc(NC(C)C)nc(N(C#N)C(C)C(=O)N(C)C)n1 (stereo not given) the results were RanGTP-Imp inh 7.0, T cruzi inh 6.3 and Calb FLC 28.4.
CCCCn1c(SCc2cc(=O)[nH]c3ccccc23)nc2c1c(=O)n(C)c(=O)n2C was read as RanGTP-Imp inh 0.7, T cruzi inh -13.0 and Calb FLC 7.5.
For CN1C=CC(=C2C(=O)c3ccccc3C2=O)C=C1 the results were RanGTP-Imp inh -1.6, T cruzi inh -7.2 and Calb FLC -6.4.
`C=CCN1C(=O)/C(=C2/C(=O)N(CC(=O)O)c3ccccc32)S/C1=N/c1nccs1` gave RanGTP-Imp inh 1.9, T cruzi inh -2.1 and Calb FLC 3.1.
`CCCCCCN(C(=O)CCCCCN1C(=O)NC(c2ccc(-c3ccccc3)cc2)C(C(=O)OCc2ccccc2)=C1C)C(C(=O)NCCCC)c1ccc(O)c(C(=O)OC)c1` (stereo not given) gave RanGTP-Imp inh 2.4, T cruzi inh 24.5 and Calb FLC -6.7.
`O=C(CN1CCSCC1)N1CCc2[nH]c3ccc(Br)cc3c2C1` gave RanGTP-Imp inh -2.1, T cruzi inh 21.4 and Calb FLC 14.1.
Screening CC(=O)N1c2ccc3ccccc3c2C2C=CCC2C1c1ccc(Br)cc1 (stereo not given) returned LANA-H2B inh -3.3, Beta cell apopt -1.5 and A1 inh 0.9.
`O=C1NC(Cc2ccccc2)c2nc3ccc(Cl)cc3c(=O)n2-c2ccccc21` (stereo not given) gave LANA-H2B inh -2.7, Beta cell apopt 2.4 and A1 inh 1.2.
Screening O=C1c2ccccc2C(=O)N1c1cccc(-c2csc(Nc3ccc4c(c3)OCO4)n2)c1 returned LANA-H2B inh 1.4, Beta cell apopt -3.9 and A1 inh -0.3.
CC(C)[C@@]1(c2ccc(Cl)cc2)ON(c2ccccc2C(F)(F)F)C1=O was read as LANA-H2B inh -2.0, Beta cell apopt 0.2 and A1 inh 0.5.
For CC1(C)O[C@@H]2[C@H](O1)[C@@H](COS(=O)(=O)O)O[C@H]2n1cnc2c(N)ncnc21 the results were LANA-H2B inh -4.2, Beta cell apopt -1.0 and A1 inh inconclusive.
Screening CCCCCCCC#Cc1ccccc1/C=N/S(=O)c1ccc(C)cc1 (stereo not given) returned LANA-H2B inh 2.9, Beta cell apopt 20.3 and A1 inh 0.3.
`O=C1C=C(O)c2c(O)cccc2C1=O` gave LANA-H2B inh -5.8, Beta cell apopt 2.1 and A1 inh -0.4.
`CSCSC1=C(C#N)C(c2ccc(Cl)cc2)C(C(C)=O)=C(C)N1` (stereo not given) gave LANA-H2B inh -0.3, Beta cell apopt 27.5 and A1 inh -0.3.
For Cc1ccc2nc3n(c(=O)c2c1)-c1ccccc1C(=O)NC3Cc1ccccc1 (stereo not given) the results were LANA-H2B inh 0.9, Beta cell apopt -3.4 and A1 inh inconclusive.
O=C1NCCCC2c3cc(O)c4ccccc4c3OC12N1CCCCC1 (stereo not given) was read as LANA-H2B inh 0.9, Beta cell apopt 8.8 and A1 inh 0.0.
For Clc1cccc(CN2COc3c(cc(Cl)c4cccnc34)C2)c1 the results were LANA-H2B inh 5.7, Beta cell apopt 85.5* and A1 inh -0.6.
COc1cc(S(=O)(=O)N2CCN(Cc3ccc4c(c3)OCO4)CC2)ccc1NC(C)=O was read as LANA-H2B inh -2.3, Beta cell apopt -1.7 and A1 inh 1.2.
For C#CCOCCOCCOCCNc1nc(N2CCN(C(=O)CCCCCCCCCCNC(=O)[C@H]([C@@H](C)CC)n3cc(CCCCCN)nn3)CC2)nc(N2CCN(C(=O)CCCCCCCCCCNC(=O)[C@@H]([C@H](C)CC)n3cc(CCCCCN)nn3)CC2)n1 the results were LANA-H2B inh -33.5, Beta cell apopt 114.8* and A1 inh 6.6*.
Screening O=C(NCCO)Nc1ccc2nc(-c3ccco3)c(-c3ccco3)nc2c1 returned LANA-H2B inh 19.0, Beta cell apopt -2.4 and A1 inh 1.7.
Screening CCCCC/C=C\C/C=C\C/C=C\C/C=C\CCCC(=O)O returned LANA-H2B inh 0.6, Beta cell apopt -6.6 and A1 inh -0.2.
Nc1ccc(N2CCCCCC2)cc1 was read as LANA-H2B inh 4.0, Beta cell apopt 69.1 and A1 inh -0.2.
For O=C1NC(Cc2ccc(O)cc2)c2nc3ccccc3c(=O)n2-c2ccccc21 (stereo not given) the results were LANA-H2B inh -0.1, Beta cell apopt -10.5 and A1 inh 1.1.
For CC(C)CC1NC(=O)c2ccc(Cl)cc2-n2c1nc1cc(F)ccc1c2=O (stereo not given) the results were LANA-H2B inh 1.5, Beta cell apopt 0.9 and A1 inh 0.5.
For Cc1ccc2c(c1)-n1c(nc3cc(F)ccc3c1=O)C(Cc1ccccc1)NC2=O (stereo not given) the results were LANA-H2B inh -4.0, Beta cell apopt -1.0 and A1 inh 0.6.
For COc1ccc(NS(=O)(=O)c2ccc(NN=Cc3ccc(C(=O)O)cc3)c([N+](=O)[O-])c2)cc1 the results were LANA-H2B inh 4.3, Beta cell apopt -5.5 and A1 inh 0.4.
C=CCn1c(=N)c(C(=O)OCC)cc2c(=O)n3cccc(C)c3nc21 was read as LANA-H2B inh -1.0, Beta cell apopt 4.2 and A1 inh -0.6.
For O=C1c2ccccc2C(=O)C1(O)O the results were LANA-H2B inh 30.5*, Beta cell apopt 4.2 and A1 inh -0.1.
Screening O=C1NC(Cc2ccc(O)cc2)c2nc3ccc(Cl)cc3c(=O)n2-c2cc(Cl)ccc21 (stereo not given) returned LANA-H2B inh -7.6, Beta cell apopt -1.1 and A1 inh 1.5.
`Cc1cc(S(=O)(=O)Nc2ccc(C(=O)NCC3CCCO3)cc2)ccc1F` (stereo not given) gave LANA-H2B inh 4.9, Beta cell apopt -5.6 and A1 inh 0.3.
`O=C1NC(Cc2ccccc2)c2nc3ccc(Cl)cc3c(=O)n2-c2ccc(Cl)cc21` (stereo not given) gave LANA-H2B inh -1.1, Beta cell apopt -5.4 and A1 inh 0.5.
CC(C)[C@@]1(c2ccccc2)ON(c2ccccc2C(F)(F)F)C1=O was read as LANA-H2B inh 0.6, Beta cell apopt -3.0 and A1 inh 0.2.
Screening O=C(NCc1ccccc1Br)c1cccc2c1C(=O)c1ccc(N3CCOCC3)cc1S2(=O)=O returned LANA-H2B inh -3.9, Beta cell apopt 86.8* and A1 inh 0.1.
Cc1ccc(C(=O)N2CCC3CC2c2cc(-c4ccc5c(c4)OCO5)ccc23)cc1 (stereo not given) was read as B2AR ag -1.8.
CC(=O)OC(C)C1C2=C(C(=O)CC1(C)O)C(=O)c1c(ccc(-c3ccc4c(c3O)C(=O)C3=C(C4=O)C(C(C)OC(C)=O)C(C)(O)CC3=O)c1O)C2=O (stereo not given) was read as B2AR ag 13.0.
Oc1ccc2ccccc2c1/C=C/c1ccc2c(Br)cc(Br)c(O)c2n1 was read as B2AR ag -11.4.
Screening COCC(=O)N(C)[C@H]1C[C@H]2c3cc(Oc4ccccc4C)ccc3CCN2C(=O)[C@H]1[C@H](C)O returned B2AR ag -9.6.
Screening O=C(CNC(=O)c1ccc(Cl)cc1)NCc1ccccn1 returned B2AR ag -3.1.
For Cc1cc(=O)[nH]c(NC(=O)Cc2ccccc2)n1 the results were B2AR ag 0.2.

Random excerpt: 2 records from the list, in no set order.
For CC(C)CC1NC(=O)c2ccc(Cl)cc2-n2c1nc1cc(F)ccc1c2=O (stereo not given) the results were LANA-H2B inh 1.5, Beta cell apopt 0.9 and A1 inh 0.5.
COc1cc(S(=O)(=O)N2CCN(Cc3ccc4c(c3)OCO4)CC2)ccc1NC(C)=O was read as LANA-H2B inh -2.3, Beta cell apopt -1.7 and A1 inh 1.2.

(listing goes on)
O=[N+]([O-])c1ccc(COc2ccc(CN3CCCC3)cc2)cc1 was read as B2AR ag -3.0.
For CC(C)(C)OC(=O)N1CCC(C(=O)Nc2ccc(C(=O)N3CCCCC3)cc2)CC1 the results were B2AR ag 1.5.
`NC(=O)c1ncn([C@@H]2O[C@H](CNCc3ccccc3OCc3ccc(Cl)cc3Cl)[C@@H](O)[C@H]2O)n1` gave B2AR ag -4.1.
Screening C=CCCC1CN(CCCC)S(=O)(=O)c2c(F)cccc2O1 (stereo not given) returned B2AR ag 2.5.
Screening CCCCN1CC(COc2ccccc2)Oc2cccc(F)c2S1(=O)=O (stereo not given) returned B2AR ag -2.7.
`O=C(NC(=O)c1c(F)cccc1F)Nc1cccc(Oc2ncc(Cl)cn2)c1` gave B2AR ag -6.3.
Screening CCCCCCCCNS(=O)(=O)CCNC1CC1 returned B2AR ag -1.4.
Cc1cc(NC(=O)NC(=O)c2ccccc2NC(=O)CN(C)C)ccc1Oc1ncc(Br)cn1 was read as B2AR ag -4.7.
Cc1ccnc(NC(=O)c2cccc(NC(=O)c3ccc(Cl)cc3)c2)c1 was read as B2AR ag 4.9.
For COc1cc2c(cc1OC(C)=O)CCCCC2=O the results were B2AR ag -4.2.
For Cc1ccc(S(=O)(=O)CS(=O)(=O)c2ccc(C)cc2)cc1 the results were B2AR ag -2.2.
Screening O=C(NCc1ccccc1)c1ccc(NC(=O)C2CCCCC2)cc1 returned B2AR ag 12.8.
`C#CCOCCOCCOCCNc1nc(N2CCOCC2)nc(N2CCN(C(=O)[C@H](C)n3cc(CCC(=O)O)nn3)CC2)n1` gave B2AR ag -6.6.
Cc1nc2cc(Cc3ccccc3)ccc2o1 was read as B2AR ag -4.3.
O=C(NCCCOc1ccc([N+](=O)[O-])cc1Cl)OCc1ccccc1 was read as B2AR ag -11.9.
For O=c1cc(Cc2ccc([N+](=O)[O-])cc2)[nH]c(=O)[nH]1 the results were B2AR ag -10.1.
